# Ecoli rRNA inh: inhibits bacterial ribosomal RNA function over humanized ribosomes | E. coli WT GFP vs humanized-ribosome RFP mutants, fluorescence, 24 h; active compounds read low; DMSO median 0, no signal -100 | GFP signal change (wild-type ribosome), % (no concentration beside the values) | actives 1.6% (n = 350,000);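 active means significant combined selectivity score with lowered wild-type GFP, culture density cut under 30%, mutant RFP and density less affected; inactive means any of these conditions unmet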; further: one replicate is shown; some compounds called inactive have numbers as strong as hits
# FGF22 binding: binders of recombinant human FGF22 by thermal shift | Q9HCT0 | SYPRO orange fluorescence; percent of sucrose octasulfate shift, DMSO zero | calls only at 9.99 µM | actives 1.5% (n = 340,000);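 active means melting point raised past a set limit in the mean and every replicate; three in four hits are not shown here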
# Target sequence (Q9HCT0 whole entry, looked up): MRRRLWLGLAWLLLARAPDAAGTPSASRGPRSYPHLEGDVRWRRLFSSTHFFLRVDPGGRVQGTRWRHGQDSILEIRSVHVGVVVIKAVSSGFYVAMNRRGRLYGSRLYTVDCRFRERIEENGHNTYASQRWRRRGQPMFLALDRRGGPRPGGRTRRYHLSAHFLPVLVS
# Ecoli rRNA inh OD600: second read-out of Ecoli rRNA inh, no call of its own (marks repeat the call); OD600 change, %; measured here: OD600 growth;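 optical density of the mix in the first replicate; 0 = DMSO median and -100 = no signal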
# Ecoli rRNA inh RFP: recorded beside Ecoli rRNA inh, whose call it bears; RFP signal change, %; measured here: RFP humanized mutant strains;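 first replicate; 0 = DMSO median and -100 = no signal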
# * hit, by the source's call; i = inactive; . = not tested or not shown; + = active, no number; & = joins results of further samples. Only part of the results is shown. The share of hits here may be higher or lower than overall.
[1] Cc1ccc2nc(CN(C)C(=O)[C@H](CCc3ccccc3)NC(=O)[C@H]3O[C@@H](n4cnc5c(N)ncnc54)[C@H](O)[C@@H]3O)[nH]c2c1
[2] O=C(c1cccc(F)c1)N1CC[C@@H]2[C@H](CO)Nc3ccc(-c4ccccc4F)cc3[C@@H]21
[3] Cc1noc(C)c1NC(=O)Nc1ccc2c(c1)C(=O)N([C@@H](C)CO)C[C@H](C)[C@H](CN(C)Cc1ccc(C(=O)O)cc1)OCCCC[C@H](C)O2
[4] Cc1ccc(S(=O)(=O)Nc2ccc3c(c2)C(=O)N([C@@H](C)CO)C[C@H](C)[C@H](CN(C)C(=O)c2ccncc2)OCCCC[C@H](C)O3)cc1
[5] Cc1noc(C)c1NC(=O)N(C)C[C@H]1OCCCC[C@@H](C)Oc2ccc(NS(C)(=O)=O)cc2C(=O)N([C@H](C)CO)C[C@H]1C
entry no. | 1 | 2 | 3 | 4 | 5
Ecoli rRNA inh | 11 | -6 | 2 | 0 | 4
Ecoli rRNA inh OD600 | -4 | -23 | 13 | -6 | 9
Ecoli rRNA inh RFP | 7.2 | 26 | -0.4 | -0.6 | -0.9
FGF22 binding | i | i | i | i | i

# Some entries already given, reduced to Ecoli rRNA inh and Ecoli rRNA inh RFP.
no. | molecule | Ecoli rRNA inh | Ecoli rRNA inh RFP
1 | Cc1ccc2nc(CN(C)C(=O)[C@H](CCc3ccccc3)NC(=O)[C@H]3O[C@@H](n4cnc5c(N)ncnc54)[C@H](O)[C@@H]3O)[nH]c2c1 | 11 | 7.2
2 | O=C(c1cccc(F)c1)N1CC[C@@H]2[C@H](CO)Nc3ccc(-c4ccccc4F)cc3[C@@H]21 | -6 | 26
3 | Cc1noc(C)c1NC(=O)Nc1ccc2c(c1)C(=O)N([C@@H](C)CO)C[C@H](C)[C@H](CN(C)Cc1ccc(C(=O)O)cc1)OCCCC[C@H](C)O2 | 2 | -0.4
4 | Cc1ccc(S(=O)(=O)Nc2ccc3c(c2)C(=O)N([C@@H](C)CO)C[C@H](C)[C@H](CN(C)C(=O)c2ccncc2)OCCCC[C@H](C)O3)cc1 | 0 | -0.6
5 | Cc1noc(C)c1NC(=O)N(C)C[C@H]1OCCCC[C@@H](C)Oc2ccc(NS(C)(=O)=O)cc2C(=O)N([C@H](C)CO)C[C@H]1C | 4 | -0.9

# (further entries)
[6] C(=C/c1ccccc1)/c1ccccc1
[7] Cc1ccc(S(=O)(=O)Nc2ccc3c(c2)C(=O)N([C@H](C)CO)C[C@H](C)[C@@H](CN(C)C(=O)c2ccncc2)OCCCC[C@@H](C)O3)cc1
[8] Cc1noc(C)c1NC(=O)N(C)C[C@H]1Oc2ccc(NS(C)(=O)=O)cc2CC(=O)N([C@@H](C)CO)C[C@H]1C
[9] C[C@H]1CCCCO[C@H](CN(C)C(=O)Nc2ccc3c(c2)OCO3)[C@@H](C)CN([C@@H](C)CO)C(=O)c2cc(NS(=O)(=O)c3ccc(F)cc3)ccc2O1
[10] COc1cccc(-c2ccc3c(c2)[C@H]2[C@H](CCN2S(=O)(=O)C2=NC(C)C=N2)[C@H](CO)N3C)c1 (stereo partly specified)
entry no. | 6 | 7 | 8 | 9 | 10
Ecoli rRNA inh | 5 | 4 | 1 | -1 | -6
Ecoli rRNA inh OD600 | -2 | -2 | -3 | 1 | -2
Ecoli rRNA inh RFP | -0.4 | -0.1 | 0.6 | -2.3 | 5.4
FGF22 binding | i | i | i | i | i

[11] CC(C)NC(=O)N(C)C[C@@H]1Oc2c(NC(=O)Nc3ccc4c(c3)OCO4)cccc2C(=O)N([C@H](C)CO)C[C@@H]1C
[12] C[C@H](CO)N1C[C@H](C)[C@@H](CN(C)Cc2ccc3c(c2)OCO3)OCCCC[C@H](C)Oc2ccc(NS(=O)(=O)c3cn(C)cn3)cc2C1=O
[13] COCCN(CCOC)C(=O)[C@@H](Cc1ccccc1)NC(=O)[C@H]1O[C@@H](n2ccc(N)nc2=O)[C@H](O)[C@@H]1O
[14] Fc1cccc(Cl)c1CN1CCN(c2ncc(Cc3ccccc3)cn2)CC1
[15] CCNC(=O)N1CCN(c2ccc(N3CCN(C(=O)NCC)[C@H](C)C3)c(C)c2)[C@H](C)C1
entry no. | 11 | 12 | 13 | 14 | 15
Ecoli rRNA inh | 0 | 2 | 11 | -23 | -1
Ecoli rRNA inh OD600 | 8 | 5 | 11 | -15 | 6
Ecoli rRNA inh RFP | -1.0 | 0.6 | 1.9 | -6.0 | 1.8
FGF22 binding | i | i | i | i | i

[16] COc1ccc(C(=O)Nc2ccc3c(c2)OC[C@H](C)N(C)C[C@H](C)[C@H](OC)CN(C)C3=O)cc1
[17] COc1cc(CN2CCN(c3ncc(Cc4ccccc4)cn3)CC2)cc(OC)c1
[18] COc1ccc(NC(=O)Nc2ccc3c(c2)C(=O)N([C@H](C)CO)C[C@H](C)[C@H](CN(C)S(=O)(=O)c2cn(C)cn2)OCCCC[C@@H](C)O3)cc1
[19] O=C(C[C@H]1CC[C@H]2[C@@H](COC[C@H](O)CN2Cc2ccc(C(F)(F)F)cc2)O1)N1CCc2ccccc2C1
[20] COc1ccccc1S(=O)(=O)N1C[C@@H]2N[C@H](C1)C2c1ccc(-c2cccnc2)cc1 (stereo partly specified)
entry no. | 16 | 17 | 18 | 19 | 20
Ecoli rRNA inh | -3 | -23 | 1 | i | -5&4
Ecoli rRNA inh OD600 | 5 | -32 | 3 | . | -23&11
Ecoli rRNA inh RFP | -1.9 | -6.5 | -1.5 | . | -2.4&-4.5
FGF22 binding | i | i | i | i | i

[21] O=C(CN1CCOCC1)N1CC[C@H]2[C@H](CO)Nc3ccc(-c4ccccc4F)cc3[C@H]21
[22] CCNC(=O)C[C@@H]1CC[C@@H]2[C@H](COC[C@H](O)CN2Cc2ccncc2)O1
[23] O=C(CCc1c[nH]c2ccccc12)Nc1ccc(Nc2cccnc2)cc1
[24] C[C@@H]1CN([C@H](C)CO)C(=O)Cc2cc(NC(=O)CCCCCC(=O)Nc3ccccc3N)ccc2O[C@H]1CN(C)C(=O)Nc1ccc(C(F)(F)F)cc1
[25] CCCNC(=O)C[C@H]1CC[C@@H]2[C@@H](COc3ccc(NC(=O)Nc4ccccc4)cc3C(=O)N2C)O1
entry no. | 21 | 22 | 23 | 24 | 25
Ecoli rRNA inh | 2 | 8 | -30* | 5 | -2
Ecoli rRNA inh OD600 | 11 | 1 | -23* | 1 | -9
Ecoli rRNA inh RFP | -5.2 | -1.9 | -0.3* | 0.8 | 2.2
FGF22 binding | i | i | + | i | i

[26] C[C@@H]1CCCCO[C@H](CN(C)C(=O)Cc2ccccc2)[C@@H](C)CN([C@H](C)CO)C(=O)c2cc(NC(=O)C3CCCCC3)ccc2O1
[27] COc1cccc(S(=O)(=O)N2CC[C@H]3[C@H](CO)Nc4ccc(-c5ccc(C#N)cc5)cc4[C@H]32)c1
[28] O=C(C[C@H]1CC[C@@H]2[C@H](COC[C@H](O)CN2C(=O)c2ccccc2)O1)NCCCN1CCOCC1
[29] COc1ccc2c3c(n(C)c2c1)[C@@H](CO)N(C(=O)C1CC1)CC31CN(Cc2cccc(F)c2)C1
[30] O=C(N[C@@H](Cc1cccnc1)C(=O)N1CCC[C@H]1C(=O)NCCc1ccccc1Cl)C1CC1
entry no. | 26 | 27 | 28 | 29 | 30
Ecoli rRNA inh | -2 | -6 | -1 | -5 | 4
Ecoli rRNA inh OD600 | -2 | -8 | 3 | -19 | 8
Ecoli rRNA inh RFP | 0.1 | -0.5 | 4.5 | 3.4 | 1.7
FGF22 binding | i | i | i | i | i

# Compounds listed so far that have an NH in an aromatic ring:
[1] Cc1ccc2nc(CN(C)C(=O)[C@H](CCc3ccccc3)NC(=O)[C@H]3O[C@@H](n4cnc5c(N)ncnc54)[C@H](O)[C@@H]3O)[nH]c2c1
[23] O=C(CCc1c[nH]c2ccccc12)Nc1ccc(Nc2cccnc2)cc1
entry no. | 1 | 23
Ecoli rRNA inh | 11 | -30*
Ecoli rRNA inh OD600 | -4 | -23*
Ecoli rRNA inh RFP | 7.2 | -0.3*
FGF22 binding | i | +

# Next part.
[31] C[C@H](CO)N1C[C@H](C)[C@@H](CN(C)Cc2ccc(C(F)(F)F)cc2)OCCCC[C@H](C)Oc2ccc(NC(=O)Nc3ccccc3)cc2C1=O
[32] COc1cccc(C#Cc2ccc3c(c2)O[C@H](CN(C)C(=O)c2ccccn2)[C@H](C)CN([C@@H](C)CO)S3(=O)=O)c1
[33] Cc1ccccc1S(=O)(=O)N1CC[C@@H]2[C@@H](CO)Nc3ccc(-c4cccc(C#N)c4)cc3[C@@H]21
[34] COc1ccc(NC(=O)Nc2ccc3c(c2)C(=O)N([C@@H](C)CO)C[C@H](C)[C@@H](CN(C)C(=O)CCC(F)(F)F)OCCCC[C@H](C)O3)cc1
[35] CC(C)C#Cc1ccc2c(c1)O[C@@H](CN(C)C(=O)NC(C)C)[C@H](C)CN([C@@H](C)CO)S2(=O)=O
entry no. | 31 | 32 | 33 | 34 | 35
Ecoli rRNA inh | -1 | -4 | -8 | 0 | -3
Ecoli rRNA inh OD600 | 2 | -10 | -33 | -11 | 1
Ecoli rRNA inh RFP | -1.6 | 4.9 | 4.9 | 1.1 | -2.6
FGF22 binding | i | i | i | i | i

[36] CC(C)(C)C(c1nc2ccccc2[nH]1)n1c(Cc2csc3ccccc23)nc2ccccc21 (stereo unspecified)
[37] C[C@@H]1CN([C@@H](C)CO)C(=O)c2cc(NC(=O)c3ccncc3)ccc2O[C@@H](C)CCCCO[C@@H]1CN(C)C(=O)CCCN(C)C
[38] CN(C)C(=O)c1ccc(-c2ccc(C3[C@@H]4CN(S(=O)(=O)Cc5ccccc5)C[C@H]3N4)cc2)cc1 (stereo partly specified)
[39] O=C(CC1CC1)Nc1ccc2c(c1)[C@@H]1C[C@@H](CC(=O)N3CCOCC3)O[C@@H](CO)[C@@H]1O2
entry no. | 36 | 37 | 38 | 39
Ecoli rRNA inh | -9 | 1 | -2 | 1
Ecoli rRNA inh OD600 | -4 | 7 | -6 | 4
Ecoli rRNA inh RFP | 9.8 | 1.2 | 0.2 | -2.4
FGF22 binding | i | i | i | i

# Assay outcomes deposited in PubChem BioAssay by Broad Institute.
